Screening results: PubChem BioAssay, several laboratories
eIF4H FP inh = inhibitors of RNA binding by human eIF4H. inhibition, % at 35 µM. eIF4H fluorescence polarization binding assay. AID 2012. hit rate 0.94% among 290,000. Q15056;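 active means 50% or more with normal probe brightness, or confirmed in later tests; about a fifth of its hits are not listed in these tables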;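 further: calls also rest on retests at 20 µM and on dose response follow-up; 0% = protein and probe with vehicle and 100% = probe without protein; strong numbers were not always called active; many hits fall short of the cut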
PABP FP inh = blocks human PABP binding to poly(A) RNA; P11940; AID 2014; fluorescence polarization; hit rate 1% among 290,000; inhibition, % at 35 µM;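 active means 50% or more with normal probe brightness, or confirmed in later tests; about a fifth of its hits are not listed in these tables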;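 further: calls also rest on retests at 20 µM and on dose response follow-up; controls were probe without protein and protein plus probe with vehicle; some compounds called inactive have numbers as strong as hits; many hits fall short of the cut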
Rce1 inh = inhibitors of yeast Ras-converting enzyme. Q03530. yeast membranes, quenched prenylated peptide cleavage fluorescence. calls only. hit rate 0.27% among 290,000. AID 2563;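 active means fall in fluorescence gain of 50% or more versus controls, with final raw signal at or below 3038400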;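 further: plate controls were neutral control wells for no effect and wells lacking membranes for full effect; tested at 10 µM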
Target sequence (Q03530 whole entry, looked up): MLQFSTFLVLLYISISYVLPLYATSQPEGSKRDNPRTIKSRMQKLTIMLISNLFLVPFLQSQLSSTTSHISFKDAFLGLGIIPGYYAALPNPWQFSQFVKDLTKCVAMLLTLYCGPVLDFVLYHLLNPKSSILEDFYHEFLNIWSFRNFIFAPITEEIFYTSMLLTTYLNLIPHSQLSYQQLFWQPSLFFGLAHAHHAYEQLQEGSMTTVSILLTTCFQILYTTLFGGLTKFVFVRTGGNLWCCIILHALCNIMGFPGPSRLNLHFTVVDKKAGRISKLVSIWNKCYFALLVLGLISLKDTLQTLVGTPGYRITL
UUG fidelity = alters start codon recognition fidelity in yeast | S. cerevisiae UUG-firefly luciferase reporter, luminescence/redox ratio | activity score, % at 18.7 µM | hit rate 0.13% among 350,000 | AID 602363;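 active means replicate mean at a twofold rise or more, about +100% in these data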;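 further: firefly luciferase made from a UUG start codon reports start codon fidelity; reporter light over untreated wells divided by growth signal over untreated wells; some hits fall short of that in this replicate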
CSC inhib = cancer stem cell inhibition. cancer stem cell-like cells viability, luminescence. hit rate 1.1% among 300,000. inhibition, % at 7.5 µM. AID 2717;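 active means mean at 75% or more and at least half the replicates too; tested in HMLE shEcad cells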;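 further: 0% = median of negative and 100% = median of positive control wells; the first replicate is given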
Env fusion inh = blocks HIV Env-driven cell-cell fusion. hit rate 1.1% among 360,000. inhibition, % at 12.3 µM. HeLa-JRFL Env/CEM21 cell fusion, luciferase;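 active means mean replicate inhibition score of at least 50 and every replicate individually at or above 50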;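 further: 0% = plate neutral controls and 100% = maraviroc near 300 nM; one replicate is shown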
MT1-MMP act inh = inhibitors of human MT1-MMP activation. P50281. GFP/RFP ratio change, % at 20 µM. AID 651647. hit rate 0.061% among 360,000. HT1080 RFP-PRO-GFP cells, GFP/RFP ratio fluorescence, overnight; percent of plate control window, DMSO zero;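 active means GFP/RFP ratio change of at least 30% with cell ATP level not reduced by more than half and red fluorescence within 50% of control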; further: strong numbers were not always called active
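system = RFP-PRO-GFP reporter HT1080 cells | dosing = 20 µM single dose, 1% DMSO | timing = overnight cell settling, then overnight compound exposure, 37 °C, 5% CO2 | read-out basis = GFP/RFP fluorescence ratio | controls = DMSO and RFP-L50D-GFP cell wells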
eIF4H FP inh retest = also measured in eIF4H FP inh; calls as there; inhibition, %; compound at 20 µM; confirmation average;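 mean of two retest wells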
PABP FP inh retest = second read-out of PABP FP inh, no call of its own (marks repeat the call); inhibition, %; compound at 20 µM; confirmation repeats;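 mean of two retest wells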
MT1-MMP act inh RFP = recorded beside MT1-MMP act inh, whose call it bears; RFP signal change, %; measured here: RFP expression control read;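 0 = vehicle wells; hits needed this value within 50% of zero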
* hit, by the source's call; i = inactive; nt = no result given; & = joins results of further samples; [ ] = dose if it differs, or a comment. Not all compounds are listed (hit frequency here may not be typical).

SMILES | eIF4H FP inh | PABP FP inh | Rce1 inh | UUG fidelity | CSC inhib | Env fusion inh | MT1-MMP act inh | MT1-MMP act inh RFP | others
O=C(COC(=O)COc1ccc(Br)cc1)NNC(=O)c1ccccc1 | nt | nt | nt | -2 | -2 | nt | 10 | 4
Cc1ccc(S(=O)(=O)N2CCCCC2)cc1NC(=O)Nc1ccc(Cl)cc1Cl | 4 | -10 | i | nt | 9 | 15 | -4 | -8
CCC(NC(=O)c1ccccc1NC(=O)c1ccco1)C(=O)NNC(=O)c1ccncc1 (stereo not drawn) | -7 | -1 | i | 4 | -7 | 9 | -1 | 2
CC(=O)c1ccc(N2CCC(C(=O)O)CC2)cc1 | 15 | 1 | i | -1 | 15 | 17 | 0 | -1
C[C@H](CO)N1C[C@H](C)[C@@H](CN(C)S(=O)(=O)c2cn(C)cn2)Oc2ccc(NC(=O)Nc3ccccc3)cc2C1=O | nt | nt | nt | 16&-16 | -10 | 13[16.7 µM] | 1 | 2
Cc1cc(C)cc(NC(=O)C(OC(=O)c2cc[n+]([O-])cc2)c2ccccc2)c1 (stereo not drawn) | nt | nt | nt | 0 | -17 | -20 | 4 | 2
Cc1ccc2c(c1)N(C(=O)CCC(=O)NC1CCCCCC1)CC(C)O2 (stereo not drawn) | 6 | 2 | i | 11 | 1 | -19 | -7 | -3
NC(=O)C1CCN(C(=O)c2ccc3c(=O)n(Cc4cccc(Br)c4)c(=S)[nH]c3c2)CC1 | -4 | 6 | i | -15 | 48 | 1 | 5 | -2
O=C(NCc1ccccc1)c1c(O)c2ccccc2[nH]c1=O | -5 | 0 | i | -6 | nt | -25 | 3 | 3
CN(Cc1cnccn1)Cc1c(C(=O)N2CCc3ccccc3C2)nc2ccc(Cl)cn12 | 17 | 15 | i | -7 | 2 | -2 | -3 | 7
COc1ccc(C)cc1S(=O)(=O)N(C)CC(=O)N1CCCCCC1 | 1 | 2 | i | -9 | -3 | 13 | -3 | -3
CC(C)CNS(=O)(=O)c1ccc(CCC(=O)Nc2ccc3c(c2)OCO3)cc1 | -3 | 13 | i | -7 | -2 | nt | -12 | -4
Cc1ccc(Cn2ccc(NC(=O)c3cc(-c4ccc(Br)cc4)on3)n2)cc1 | -1 | -2 | i | -12 | 11 | -54 | 4 | 2
Cc1[nH]c(C)c(C(=O)/C=C/c2ccc([N+](=O)[O-])cc2)c1C | 7 | 9 | i | -14 | 0 | -54 | -12 | -21
CN1CSC2=C(C#N)C(c3cccc(OCc4ccccc4)c3)CC(=O)N2C1 (stereo not drawn) | -5 | -4 | i | -24 | -15 | 17 | 1 | 1
CC(C)(C)c1ccc(OCCNC(=S)Nc2ccccc2)cc1 | -2 | -1 | i | -66 | 28 | 26 | -4 | -11
CCOC(=O)CN1C(=O)S/C(=C/c2ccc(OC)c([N+](=O)[O-])c2)C1=O | 50 | -3 | i | 4 | -11 | -21 | 0 | -4
COc1ccc(C(=O)N(CN2CCCC2=O)c2ccc(C)cc2)cc1 | -7 | 5 | i | -14 | -15 | -8 | -3 | 6
CCN1CCN(S(=O)(=O)c2ccc(Cl)c(C(=O)NCCOc3ccc(C)cc3)c2)CC1 | nt | nt | nt | -22 | nt | -27 | 3 | -4
COc1ccc(CN2CCNC(=O)C2CC(=O)NCC2CCOCC2)c(C)c1C (stereo not drawn) | -1 | -6 | i | 1 | -3 | -8 | nt | nt

A draw from above in order of length of the SMILES, largest number first:
SMILES | eIF4H FP inh | PABP FP inh | Rce1 inh | UUG fidelity | CSC inhib | Env fusion inh | MT1-MMP act inh | MT1-MMP act inh RFP | others
CCOC(=O)CN1C(=O)S/C(=C/c2ccc(OC)c([N+](=O)[O-])c2)C1=O | 50 | -3 | i | 4 | -11 | -21 | 0 | -4
Cc1[nH]c(C)c(C(=O)/C=C/c2ccc([N+](=O)[O-])cc2)c1C | 7 | 9 | i | -14 | 0 | -54 | -12 | -21
CN1CSC2=C(C#N)C(c3cccc(OCc4ccccc4)c3)CC(=O)N2C1 (stereo not drawn) | -5 | -4 | i | -24 | -15 | 17 | 1 | 1

(listing goes on)
SMILES | eIF4H FP inh | PABP FP inh | Rce1 inh | UUG fidelity | CSC inhib | Env fusion inh | MT1-MMP act inh | MT1-MMP act inh RFP | others
COCCCNC(=S)NC(=O)c1ccc([N+](=O)[O-])cc1 | -2 | 6 | i | -25 | 7 | -4 | -12 | -5
CCOc1ccc(NC(=O)CN(C)C(=O)c2cc(-c3ccco3)nc3ccccc23)cc1OCC | nt | nt | nt | -10 | nt | -17 | 3 | 1
O=C(CCSc1ccc(Br)cc1)Nc1cccnc1 | -5 | -2 | i | nt | -2 | -4 | 6 | -1
CCOC(=O)c1[nH]cnc1C(=O)Nc1ccc(F)cc1 | 16 | -5 | i | nt | 6 | -5 | 4 | 2
O=C(/C=C/c1ccc(F)cc1)Nc1cccc(S(=O)(=O)Nc2cccc(C(F)(F)F)c2)c1 | -11 | -3 | i | nt | 3 | 19 | -1 | -5
O=C1C(=O)N(c2ccccn2)C(c2cccc(F)c2)/C1=C(/O)c1ccccc1 (stereo not drawn) | -8 | 2 | i | -7 | -7 | nt | 0 | 1
CCOC(=O)c1ccc(CC(=O)c2ccc(O)c(O)c2O)o1 | 57 | 18 | i | nt | nt | 10 | 1 | 3 | eIF4H FP inh retest=13;PABP FP inh retest=41
Cc1nc(Cl)c(C(=O)NCCC(C)C)c(C)c1[N+](=O)[O-] | -8 | -2 | i | nt | -5 | -39 | 1 | 8
O=C1C2CCCCC2C(=O)N1c1ccc(S(=O)(=O)Nc2ncccn2)cc1 (stereo not drawn) | -2 | 5 | i | -11 | 6 | 0 | -20 | -5
O=C(COC(=O)c1nc(Cl)ccc1Cl)NC1CCS(=O)(=O)C1 (stereo not drawn) | nt | nt | i | -20 | -5 | -8 | 1 | 1
Cc1ccc(CNC(=O)COC(=O)c2ccc(S(=O)(=O)N3CCCC3)cc2)cc1 | -4 | 3 | nt | -7 | -7 | -9 | 0 | 2
C/C(=N/Nc1nc(-c2ccccc2)cc(-c2ccc(F)cc2)n1)c1cccc(N)c1 | -7 | 3 | i | nt | 43 | nt | 7 | 4
C/C(N)=C(/C#N)C(=O)CSc1ccccc1F | -1 | 4 | i | nt | 6 | -2 | 4 | -1
CC(C)(C)n1ncc2c(=O)n(CC(=O)Nc3ccccc3)cnc21 | 1 | 3 | i | -4 | 10 | nt | 4 | 10
O=C(C#Cc1ccccc1)c1cccc([N+](=O)[O-])c1 | -4 | 0 | i | -12 | nt | nt | 4 | -6
Cc1ccc(-c2ccc(=O)n(CCC(=O)NCCN3CCCCC3C)n2)cc1 (stereo not drawn) | -7 | 1 | i | 8 | 5 | nt | 4 | 7
CC(=O)c1ccc(-c2ccc(/C=C(/Sc3n[nH]c(C)n3)C(=O)O)o2)cc1 | 18 | 6 | i | nt | 0 | -38 | -14 | 2
CCN(CC)S(=O)(=O)c1ccc(O)c(C(=O)OCC(=O)N(C)Cc2ccccc2)c1 | -6 | 7 | i | 2 | -6 | nt | -3 | 0
C[C@H]1CCC[C@@]2(O[C@@H](CCO)C[C@@H](O)[C@@H]2O)O1 | 0 | 0 | i | -11 | 9 | -10 | 2 | -1
COc1ccc(S(=O)(=O)N2CCCN(CC(=O)Nc3ccc4c(c3)OCO4)CC2)cc1 | 3 | -10 | nt | -4 | 7 | -9 | -10 | -8

Of the compounds above, these contain a COOH group.
SMILES | eIF4H FP inh | PABP FP inh | Rce1 inh | UUG fidelity | CSC inhib | Env fusion inh | MT1-MMP act inh | MT1-MMP act inh RFP | others
CC(=O)c1ccc(N2CCC(C(=O)O)CC2)cc1 | 15 | 1 | i | -1 | 15 | 17 | 0 | -1
CC(=O)c1ccc(-c2ccc(/C=C(/Sc3n[nH]c(C)n3)C(=O)O)o2)cc1 | 18 | 6 | i | nt | 0 | -38 | -14 | 2

(next part)
SMILES | eIF4H FP inh | PABP FP inh | Rce1 inh | UUG fidelity | CSC inhib | Env fusion inh | MT1-MMP act inh | MT1-MMP act inh RFP | others
CN(C)C(=O)/C(=C/c1ccc(-c2cccc([N+](=O)[O-])c2)o1)NC(=O)c1ccccc1 | -2 | 0 | i | -16 | 2 | 11 | -1 | -2
NC1=C(c2ccc(F)cc2)C(=O)CS1 | -2 | 4 | i | -11 | -6 | nt | 0 | 2
CC1=CC(C)(C)NC(=S)N1c1ccccc1C | 0 | 35 | i | -33&-17 | -21 | 11&19 | -1&2 | -3&1
COc1ccc(S(=O)(=O)N2CCN(Cc3cc(=O)n4ccccc4n3)CC2)cc1 | nt | nt | nt | -18 | 13 | nt | -9 | 5
CCN(CC(=O)NCc1ccc(Cl)cc1)C(=O)CCc1ccccc1 | -11 | 0 | i | -9 | -10 | 2 | -2 | 1
COc1ccc(S(=O)(=O)N2CCN(C3Cc4ccccc4C3)CC2)cc1 | -8 | 7 | i | nt | 14 | 0 | -1 | 1
OCC#CCSc1nnc(-c2cccc3ccccc23)o1 | nt | nt | nt | -16 | nt | -39 | 5 | 3
c1ccc(C(CN2CCCCC2)Oc2ccccn2)cc1 (stereo not drawn) | nt | nt | nt | -14 | nt | 9 | -2 | 3
CC1CCC2(CC1)NC(=O)N(NC(=O)CCl)C2=O (stereo not drawn) | 10 | -6 | i | nt | 1 | 6 | 1 | 6
C=CCNc1nc(C(=O)OCC(=O)Nc2c(Cl)cccc2C(F)(F)F)cs1 | nt | nt | i | -18 | 4 | nt | 4 | 3
Oc1ccc2ccccc2c1/C=N/c1nccs1 | -3 | -6 | i | nt | -9 | 1 | -1 | 2
CC(=O)Nc1ccc(S(=O)(=O)Nc2cccn(Cc3ccc(C)cc3)c2=O)cc1 | 14 | 19 | i | -2 | -12 | 11 | -3 | -4
O=C(NCCCN1CCCC1=O)c1cc(-c2ccc3c(c2)OCO3)nc2ccccc12 | 10 | -7 | i | -4 | -17 | 10 | -5 | -3
O=C(Nc1ncc(Cc2ccccc2Cl)s1)C1CCCO1 (stereo not drawn) | -10 | -1 | i | -11 | -9 | -47 | 0 | -2
CC1CC(C)CN(C(=S)SCc2nc(N)nc(Nc3ccccc3)n2)C1 (stereo not drawn) | -6 | 0 | i | nt | 32 | 2 | 3 | -8
COc1cc(/C=C(\C#N)C(=O)Nc2ccccc2C(=O)O)cc(Cl)c1OC | -1 | 6 | i | nt | -8 | 17 | 0 | 7
O=C1CSC2(N1)C1CC3CC(C1)CC2C3 (stereo not drawn) | -11 | -2 | i | -15 | 3 | 5 | 2 | 5
O=C(CN1CCNCC1)Nc1ccc(Oc2ccccc2)cc1 | 5 | -3 | i | -11 | nt | -25 | 5 | 3
CCC1CCCCN1C(=S)NC(=O)c1ccco1 (stereo not drawn) | nt | nt | nt | -12 | 7 | -3 | 3 | 5
CCOc1ccc(C(=O)N(CC)CC(=O)Nc2ccc3c(c2)OCCO3)cc1OCC | nt | nt | nt | -3 | nt | -6 | -2 | 3
COc1ccc(/C(O)=C2/C(=O)C(=O)N(c3ccccn3)C2c2ccc(OC)c(OC)c2)cc1 (stereo not drawn) | -4 | 11 | i | nt | 5 | -14 | 2 | 3
